# Screening results from PubChem.
# GIV-Gai inh = inhibitors of GIV peptide binding to Galpha-i3, primary screen, biochemical, fluorescence polarization, FITC-GIV GBA peptide, rat Galphai3. Guanine nucleotide-binding protein G(i) subunit alpha-3 (Rattus norvegicus), P08753. 90 min; stronger effect = lower value; scaled: aluminum fluoride 0%, vehicle 100%. percent of control (FP), % (test concentration not listed). 210,000 tested, 0.42% active;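 active = replicate mean at 85% of control or lower, very high polarization wells dropped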;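 note: wells of about 15 µL received 100 nL stock; the first replicate is given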
# Target sequence (P08753 whole entry, looked up): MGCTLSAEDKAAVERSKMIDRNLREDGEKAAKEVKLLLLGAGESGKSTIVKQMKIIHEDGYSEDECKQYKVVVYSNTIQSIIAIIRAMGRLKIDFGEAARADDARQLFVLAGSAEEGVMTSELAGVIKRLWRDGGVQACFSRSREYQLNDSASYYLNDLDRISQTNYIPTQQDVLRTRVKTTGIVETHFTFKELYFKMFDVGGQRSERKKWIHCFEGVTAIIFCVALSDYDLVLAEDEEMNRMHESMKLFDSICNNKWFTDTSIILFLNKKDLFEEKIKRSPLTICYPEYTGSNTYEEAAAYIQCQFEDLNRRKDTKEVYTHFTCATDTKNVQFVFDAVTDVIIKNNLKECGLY
# Sa growth 42C = S. aureus growth inhibition at 42 and 30 °C, primary screen, LtaS inhibitor project, RN4220, two temperatures; 170,000 tested, 0.53% active; OD600, 20 h, 42 °C; stronger effect = lower value; relative growth, % (test concentration not listed);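 active = growth at 42 °C up to 50% and 20 or more points under that at 30 °C, or under 10% at both; inconclusive = no clear call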;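 note: 300 nL library stock went into each well; scaled to the means of positive and negative controls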
# HCMV NEC inh = inhibitors of HCMV UL50-UL53 interaction, biochemical, HTRF. HCMV UL50-UL53 nuclear egress complex (human cytomegalovirus). normalized percent inhibition. inhibition, % (test concentration not listed). 190,000 tested, 0.15% active. AID 1918969, 2023;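 active = both replicates at 50% or more, plus weaker picks with an unusually low signal ratio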;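 note: stock transfer was 100 nL into about 20 µL; 0% = negative control wells and 100% = wells with untagged competitor protein; inactives centre near -12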
# Sa growth 42C second temp = further read-out of Sa growth 42C, marked with its call; relative growth, %; measured here: growth at 30 °C;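 optical density after 20 h as mean of two plates; 100% = untreated growth and lower means inhibition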
# An asterisk follows results filed as active; ? = inconclusive; · = no result given; & = joins results of further samples.
SMILES,GIV-Gai inh,Sa growth 42C,Sa growth 42C second temp,HCMV NEC inh
CC1CCN(C(=O)c2cc(-c3ccc(F)cc3)no2)CC1,99,101,82,-22
Cc1cc(=O)[nH]c2sc3c(=O)cc(C(F)(F)F)[nH]c3c12,112,103,90,-41
Cc1ccc(NC(=O)CCCN2C(=O)S/C(=C/c3ccccc3)C2=O)cc1,·,77,97,-2
COc1ccccc1CNC(=O)C1c2c(C)nn(-c3ccccc3)c2SCC(=O)N1c1ccc(F)cc1 (stereo unspecified),104,·,·,-29
Cc1cc(C)c(Cn2c3ccccc3c3cnn(CC(=O)O)c(=O)c32)c(C)c1,115,103,79,0
O=C(NCc1ccccc1Cl)C(=O)NCC(c1cccs1)S(=O)(=O)c1cccs1 (stereo unspecified),96,115,81,·
Cc1ccc(CN(C)C(=O)c2cccc(S(=O)(=O)N3CCCC3)c2)cc1,·,88,88,-7
S=C(NCC1CCCO1)Nc1ccc(Cl)cc1 (stereo unspecified),98,115,93,-8
CC(C)(C)C(=O)Nc1ccc2nc(SCC(=O)N3CCc4ccccc43)sc2c1,98,106,93,10
COc1ccc(S(=O)(=O)N2CCN(c3cc(-c4cc(F)ccc4OC)ncn3)CC2)cc1Cl,102,·,·,-41
O=S1(=O)CC/C(=N/NS(=O)(=O)c2ccc(Br)cc2)c2ccccc21,·,110,80,-26
O=C(CN1C(=O)C2C3C=CC(C3)C2C1=O)NCc1ccco1 (stereo unspecified),99,91,105,-28
Cc1cccc(-n2c(SC3CCOC3=O)nnc2-c2cccc(S(=O)(=O)N(C)C)c2)c1 (stereo unspecified),·,95,93,2
Cc1ccccc1NS(=O)(=O)c1ccc2c(c1)NC(=O)CCS2,105,84,60,·
CCN1CCN(C(=O)c2cccc(F)c2)c2cccnc21,107,·,·,-20
O=C(CS(=O)(=O)c1cn(Cc2ccc(Cl)cc2)c2ccccc12)N1CCCC1,104,126,40,·
Cc1ccc2nc3c(c(C)c2c1)CC(C)O3 (stereo unspecified),103,87,79,-15
CC(=O)Nc1ccc2c(c1)C(=O)N(c1ccccc1)C2=O,101,127,85,-29
CCOC(=O)c1ccccc1NC(=O)Cn1ccn2nc(-c3ccc(OCC)cc3)cc2c1=O,106,99,94,·
CCc1ccc(NC(=O)Cn2c(=O)n(C(C)C)c(=O)c3oc4ccccc4c32)cc1,97,87,94,·
CCOC(=O)CSc1c(C)[nH]c2ccccc12,100,93,78,-7
Cc1ccc(NC(=O)c2c(Cl)nc3sccn23)cc1NC(=O)c1c(Cl)nc2sccn12,·,108,99,-25
CN(C(=O)CSc1nc(-c2cccs2)cc(C(F)(F)F)n1)c1ccccc1,103,95,92,·
COc1cc(N2CCn3c(nc4ccccc43)C2)ccc1NC(=O)Nc1ccccc1,98,·,·,-23
Cn1cc(C(=O)OCC2CCN(CCNS(C)(=O)=O)CC2)c2ccccc21,96,·,·,0&-30
SMILES,GIV-Gai inh,Sa growth 42C,Sa growth 42C second temp,HCMV NEC inh
Cc1ccc2nc(-c3ccc(NC(=O)Nc4ccccc4)cc3)sc2c1,·,87,89,-12
CCOC(=O)N1CCN(C(=O)CSc2nc(=O)n3ccc(C)cc3n2)CC1,103,82,80,-30
COC(C)(OCCn1c2ccccc2c2ccccc21)c1ccccc1 (stereo unspecified),·,107,103,-2
CC(C)(C)C(=O)C(Oc1ccc(Cl)cc1)n1ccnc1 (stereo unspecified),107,91,95,-24&-10
C=C(C)c1cccc(C(C)(C)NC(=O)NC2CC(C)(C)NC(C)(C)C2)c1,108,68,86,-4
CCC(=O)C1C(=O)c2ccccc2C1=O,110,105,92,-55
CN=C1SC(CC(=O)Nc2ccccc2)C(=O)N1C (stereo unspecified),107,97,89,-25
CCOC(=O)c1cc(NC(=O)N(CC)CC)c(C)nc1C,102,103,84,-9
CCc1ccccc1NC(=O)CSc1ncc(S(=O)(=O)c2ccc(C(C)C)cc2)c(N)n1,96,87,89,·
CCOC(=O)Cn1cc(S(=O)(=O)NC2CCCCC2)c(S(=O)(=O)NC2CCCCC2)c1,105,·,·,-2
CCc1ccc(NC(=O)c2ccc(F)c(S(=O)(=O)N3CCC(C)CC3)c2)cc1,108,98,98,·
N#CCCn1c(=S)[nH]c2ccccc21,·,106,86,-8
NNC1=NC2CS(=O)(=O)CC2S1 (stereo unspecified),102,99,105,-10
Cc1cc(C)nc(SCCC(=O)OCN2C(=O)c3ccccc3C2=O)n1,102,86,86,-1
O=c1oc2ccccc2cc1-c1nnc(NCc2ccc3c(c2)OCO3)s1,115,100,87,2
CC1(C)Cc2ccccc2-c2nc3n(c(=O)c21)CCCS3,101,115,93,-33
O=C(c1ccc2c(c1)N(Cc1ccccc1)C(=O)c1ccccc1S2=O)N1CCCCC1 (stereo unspecified),101,133,94,0
COc1cccc(CNC(=O)c2nnn(CC(=O)Nc3cc(Cl)ccc3C)c2N)c1,97,74,89,·
CC(C)(C)NS(=O)(=O)c1ccccc1,·,111,91,-8
Nc1cccc(CN2CCCC2)c1,102,107,79,-4
CCC(C(=O)Nc1c(C)cccc1C)n1c(C(=O)OC)cc2sc(C)cc21 (stereo unspecified),103,90,73,8
CC(C)OC(C)n1cccc1-c1ccccc1 (stereo unspecified),·,88,95,4
COc1ccc(OCC(=O)Nc2ccccc2SCc2cc(=O)n3c(ncn3C(C)C)n2)cc1,100,·,·,-17
Cc1ccccc1CN1C(=O)CCn2nccc21,103,·,·,-24
Cc1ccc(NC(=O)CN2C(=O)c3ccccc3S2(=O)=O)c(C)c1,98,·,·,-12
SMILES,GIV-Gai inh,Sa growth 42C,Sa growth 42C second temp,HCMV NEC inh
CC(CN1CCCCC1)OC(=O)CCc1ccccc1 (stereo unspecified),102,112,110,18
O=C(CCC(=O)N1CCSc2ncccc21)NCc1ccccc1Cl,112,·,·,-5
CC(C)Cn1c(SCC(=O)Nc2ccc(S(N)(=O)=O)cc2)nnc1-c1ccco1,·,79,89,-8
COc1ccc(NC(=O)C2CCN(S(=O)(=O)c3ccc4c(c3)CCCC(=O)N4)CC2)cc1Cl,103,99,86,·
CCCS(=O)(=O)c1nc(S(=O)(=O)c2ccc(C)cc2)c(N(CC)CC)s1,104,103,90,-1
Cc1nc2cc(C(=O)NCCc3c[nH]c4ccccc34)ccc2n(Cc2ccccc2)c1=O,105,·,·,-25
Cc1ccc2cc(C3CC(c4ccc(Br)cc4)=NN3C(=O)CCC(=O)O)c(Cl)nc2c1 (stereo unspecified),107,·,·,2
CCCc1c(C(=O)NCc2cc(F)cc3c2OCOC3)cnn1-c1ccccc1,104,114,91,-2
CN(Cc1ccccc1)C(=O)COc1ccccc1Cl,104,91,79,-27
O=C(CC(NC1CC1)C(=O)O)c1ccc(Cl)cc1 (stereo unspecified),·,112,84,-5
CC1(C)CC(=O)C=C(Nc2ccc(F)cc2)C1,97,102&95,72&87,0&-18
CC(c1ccncc1)N(CCN(C)C)C(=O)Nc1ccc(Cl)c(Cl)c1 (stereo unspecified),101,109,90,4
COc1ccc(OC)c(NC(=O)c2ccc(-c3nc(CSc4ccccc4)c(C)o3)cc2)c1,105,138,91,·
CCN1CCN(CCCNC(=O)c2ccc(Cn3c(=S)[nH]c4cc5c(cc4c3=O)OCO5)cc2)CC1,106,100,90,5
Cc1cc(C)cc(-n2c(SCC(=O)Nc3ccc4c(c3)OCCO4)nc3c([nH]c4ccccc43)c2=O)c1,108,108,97,·
CCN1/C(=C\C=C2C(=O)OC(C)(C)OC2=O)Sc2ccccc21,-34*,76,93,-25
CC(C)OC(=O)/C(C#N)=C\c1cccs1,103,86,95,-11
O=C1/C(=C/c2ccccn2)CC/C1=C\c1ccccn1,95,103,85,·
CSc1sc(C(=O)/C=C/N(C)C)c(-c2ccccc2)c1C#N,110,98,83,-94
O=C(Nc1n[nH]c(C(F)(F)F)n1)c1ccc(F)cc1,·,99,88,-9
CCN(CC)C(=O)Cn1cc(S(=O)(=O)CC(=O)NCCc2ccccc2)c2ccccc21,98,89,86,-40
Cc1cccc(-c2cc(Nc3cccc(C(=O)NCCC(C)C)c3)ncn2)c1,113,·,·,-8
O=C(O)c1ccc(S(=O)(=O)NC2=NCCS2)cc1,101,102,93,-10
O=C(O)CNCc1nc2ccccc2[nH]1,104,113,98,-7
Cn1ccnc1SCn1nnc2ccccc2c1=O,·,82,92,-60

# In another format: results already given
SMILES: CC(C)OC(=O)/C(C#N)=C\c1cccs1
  GIV-Gai inh: 103 | Sa growth 42C: 86 | Sa growth 42C second temp: 95 | HCMV NEC inh: -11

SMILES: CCc1ccc(NC(=O)c2ccc(F)c(S(=O)(=O)N3CCC(C)CC3)c2)cc1
  GIV-Gai inh: 108 | Sa growth 42C: 98 | Sa growth 42C second temp: 98 | HCMV NEC inh: ·

SMILES: Nc1cccc(CN2CCCC2)c1
  GIV-Gai inh: 102 | Sa growth 42C: 107 | Sa growth 42C second temp: 79 | HCMV NEC inh: -4

SMILES: Cc1ccccc1CN1C(=O)CCn2nccc21
  GIV-Gai inh: 103 | Sa growth 42C: · | Sa growth 42C second temp: · | HCMV NEC inh: -24

# Going on with the list.
SMILES,GIV-Gai inh,Sa growth 42C,Sa growth 42C second temp,HCMV NEC inh
O=C(c1cc2ccccc2c(=O)o1)N1CCc2ccccc2C1,103,80,82,-6
Cc1ccc(S(=O)(=O)NCCN2CCOCC2)cc1,98,95,89,-28
CCCN1C(=O)c2[nH]nc(-c3ccccc3O)c2C1c1cccc(OCc2ccccc2)c1 (stereo unspecified),98,63,23,-8
CCN(c1ccccc1)S(=O)(=O)c1cccs1,114,102,92,·
COc1cc(Cl)c(C)cc1NC(=O)NCc1noc2ccccc12,103,106,99,-13
COc1ccc(OCC2Cn3c(nc4c3c(=O)n(C)c(=O)n4C)O2)cc1 (stereo unspecified),105,113,94,-21
CN(C)c1nc(-c2ccccc2)nc2c1sc(=S)n2-c1ccccc1,·,98,90,-10
COc1ccccc1-n1cnc2cc(NCc3ccncc3)ccc21,105,81,59,-5
COc1cc(C)nc(Oc2ccc(/C=N/O)cc2)n1,102,100,103,-6
COc1ccc(C2CCCCC2O)cc1OC (stereo unspecified),103,93,101,6
Cn1ccnc1SCC(=O)NC1CCCC1,113,91,99,·
Cc1cc(NC(=O)C(C)Sc2nc(-c3ccccc3)cc(C(F)(F)F)n2)no1 (stereo unspecified),101,93,90,·
NC[C@@H]1O[C@H](c2ccccc2)Cc2c1ccc(O)c2O,101,·,·,-40
Cc1ccc(C(=O)N2CCc3cc4ccc(C)cc4nc32)cc1,108,·,·,0
O=C1C=CC(=O)N1Cc1ccccc1,·,31,32,-20
Cc1ccc(COc2ccc(C3CC(=O)Nc4nc(N)[nH]c(=O)c43)cc2)cc1 (stereo unspecified),102,·,·,-17
CCOC(=O)C1=C(CS(=O)(=O)c2ccc(F)c(C)c2)NC(=O)NC1c1ccccc1OC (stereo unspecified),104,94,87,-2
CCN(CC)C(=O)Cn1c(=O)n(Cc2ccc(C(=O)NCCc3ccc(OC)c(OC)c3)cc2)c(=O)c2ccccc21,102,97,94,-20
CCC(C)NC(=O)c1ccc(CS(=O)(=O)c2ccc(OC)cc2)o1 (stereo unspecified),99,125,94,-2
O=C(OCc1cc(=O)n2c3c(sc2n1)CCCC3)c1cccc(NC(=O)c2ccccc2F)c1,98,77,86,·
CCN1CCOC(=O)C1CC(=O)Nc1cc(C)cc(C)c1 (stereo unspecified),103,?,·,1
CC(C)Cn1c(SCC(=O)NC2CC2)nnc1-c1ccccc1F,·,99,92,-9
COc1cc(/C=C2\C(=O)NC(=O)N(c3ccc(Br)cc3)C2=O)ccc1OCC(=O)O,108,·,·,-29
CC(C)NC(=O)Cn1cc(C(F)(F)F)ccc1=O,·,97,96,-1
Cn1c(=O)c(-c2noc(C(=O)N3CCN(C4CCCCC4)CC3)n2)nn(-c2ccc(F)cc2)c1=O,97,·,·,-46

# Copied from the entries so far for reference:
SMILES,GIV-Gai inh,Sa growth 42C,Sa growth 42C second temp,HCMV NEC inh
Cc1cc(C)cc(-n2c(SCC(=O)Nc3ccc4c(c3)OCCO4)nc3c([nH]c4ccccc43)c2=O)c1,108,108,97,·
CCN1/C(=C\C=C2C(=O)OC(C)(C)OC2=O)Sc2ccccc21,-34*,76,93,-25
CC(C)OC(=O)/C(C#N)=C\c1cccs1,103,86,95,-11

# Additional compounds.
SMILES,GIV-Gai inh,Sa growth 42C,Sa growth 42C second temp,HCMV NEC inh
O=C(Cn1nnc(-c2cccs2)n1)N1c2ccccc2CCc2ccccc21,103,99,87,-12
COC(c1cccs1)c1c(C)[nH]c2ccccc12 (stereo unspecified),·,2.0*,0.8*,-5
COc1ccc(C(F)(F)F)cc1NC(=O)c1sc2nc(-c3cccs3)ccc2c1N,117,106,97,2
CCC(=O)N1CCc2cc(S(=O)(=O)CCC(=O)N3CCN(c4cccc(Cl)c4)CC3)ccc21,105,106,91,-16
CCCCOc1ccc(-c2cc3c(N4CCC(C(=O)N5CCSCC5)CC4)nccn3n2)cc1,105,·,·,-18
O=C(CSc1nc(Nc2ccccc2)nc(N2CCOCC2)n1)N1CCN(c2ccccc2)CC1,102,116,106,1
